eIF4H inh: inhibitors of RNA binding by human eIF4H; eIF4H fluorescence polarization binding assay; Q15056; inhibition, % at 35 µM; AID 2012; 290,000 compounds, 0.94% hits;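 active = 50% or more with normal probe brightness, or confirmed in later tests; inconclusive = above 50% with abnormal brightness, or retests that disagree; inactive = below 50% or failed in later tests; about a fifth of its hits are not listed in these tables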;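 also: calls also rest on retests at 20 µM and on dose response follow-up; 0% = protein and probe with vehicle and 100% = probe without protein; strong numbers were not always called active; many hits fall short of the cut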
MT1-MMP act inh: blocks activation of human MT1-MMP. 360,000 compounds, 0.061% hits. P50281. HT1080 RFP-PRO-GFP cells, GFP/RFP ratio fluorescence, overnight; percent of plate control window, DMSO zero. GFP/RFP ratio change, % at 20 µM;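 active = GFP/RFP ratio change of at least 30% with cell ATP level not reduced by more than half and red fluorescence within 50% of control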; also: strong numbers were not always called active
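Assay system: HT1080 cells carrying an RFP-PRO-GFP reporter | Dosing: Single dose of 20 µM compound, 1% DMSO final | Incubation: Cells overnight before dosing, compound overnight, 37 °C, 5% CO2 | Evaluation: GFP/RFP fluorescence ratio | Control set: DMSO and RFP-L50D-GFP cell wells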
CSC inhib: cancer stem cell inhibition | cancer stem cell-like cells viability, luminescence | inhibition, % at 7.5 µM | 300,000 compounds, 1.1% hits;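 active = mean at 75% or more and at least half the replicates too; inconclusive = mean and replicates disagree; tested in HMLE shEcad cells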;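 also: 0% = median of negative and 100% = median of positive control wells; the first replicate is given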
Rce1 inh: blocks yeast Ras-converting enzyme. calls only. AID 2563. yeast membranes, quenched prenylated peptide cleavage fluorescence. 290,000 compounds, 0.27% hits. Q03530;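 active = fall in fluorescence gain of 50% or more versus controls, with final raw signal at or below 3038400; inconclusive = same 50% fall but final raw signal above 3038400; inactive = fall in fluorescence gain under 50%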;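 also: plate controls were neutral control wells for no effect and wells lacking membranes for full effect; tested at 10 µM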
PABP polyA inh: blocks human PABP binding to poly(A) RNA; fluorescence polarization; inhibition, % at 35 µM; 290,000 compounds, 1% hits;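 active = 50% or more with normal probe brightness, or confirmed in later tests; inconclusive = above 50% with abnormal brightness, or retests that disagree; inactive = below 50% or failed in later tests; about a fifth of its hits are not listed in these tables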;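 also: calls also rest on retests at 20 µM and on dose response follow-up; controls were probe without protein and protein plus probe with vehicle; some compounds called inactive have numbers as strong as hits; many hits fall short of the cut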
Target sequence (P11940 whole entry, looked up): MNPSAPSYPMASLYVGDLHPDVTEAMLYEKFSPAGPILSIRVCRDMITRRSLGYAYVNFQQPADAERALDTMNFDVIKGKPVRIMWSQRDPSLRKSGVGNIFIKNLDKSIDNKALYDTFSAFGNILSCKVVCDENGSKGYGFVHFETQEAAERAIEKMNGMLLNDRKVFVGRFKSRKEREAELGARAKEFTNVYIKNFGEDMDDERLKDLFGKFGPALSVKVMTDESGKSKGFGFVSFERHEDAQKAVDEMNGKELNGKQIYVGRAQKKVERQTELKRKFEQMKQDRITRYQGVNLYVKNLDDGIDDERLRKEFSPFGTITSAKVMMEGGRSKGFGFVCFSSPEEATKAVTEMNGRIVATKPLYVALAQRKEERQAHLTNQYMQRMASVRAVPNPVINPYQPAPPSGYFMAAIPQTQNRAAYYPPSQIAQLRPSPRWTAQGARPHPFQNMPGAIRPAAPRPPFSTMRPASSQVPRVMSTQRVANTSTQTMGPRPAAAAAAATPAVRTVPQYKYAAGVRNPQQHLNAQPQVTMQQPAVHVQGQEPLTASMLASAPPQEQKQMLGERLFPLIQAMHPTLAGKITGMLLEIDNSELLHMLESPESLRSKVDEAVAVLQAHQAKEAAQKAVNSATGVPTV
Yeast UUG start: yeast start codon fidelity modulation; 350,000 compounds, 0.13% hits; AID 602363; activity score, % at 18.7 µM; S. cerevisiae UUG-firefly luciferase reporter, luminescence/redox ratio;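 active = replicate mean at a twofold rise or more, about +100% in these data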;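 also: firefly luciferase made from a UUG start codon reports start codon fidelity; reporter light over untreated wells divided by growth signal over untreated wells; some hits fall short of that in this replicate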
HIV Env fusion: blocks HIV Env-driven cell-cell fusion | 360,000 compounds, 1.1% hits | inhibition, % at 12.3 µM | HeLa-JRFL Env/CEM21 cell fusion, luciferase;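 active = mean replicate inhibition score of at least 50 and every replicate individually at or above 50; inconclusive = only one of the two criteria met; inactive = mean below 50 and not all replicates reaching 50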;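 also: 0% = plate neutral controls and 100% = maraviroc near 300 nM; one replicate is shown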
eIF4H inh retest: also measured in eIF4H inh; calls as there; inhibition, %; compound at 20 µM; confirmation average;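 mean of two retest wells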
PABP polyA inh retest: also measured in PABP polyA inh; calls as there; inhibition, %; compound at 20 µM; confirmation repeats;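 mean of two retest wells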
MT1-MMP act inh RFP: second read-out of MT1-MMP act inh, no call of its own (marks repeat the call); RFP signal change, %; measured here: RFP expression control read;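 0 = vehicle wells; hits needed this value within 50% of zero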
The depositor's hits bear a star; i = inactive; ? = inconclusive; · = no result given.

SMILES	eIF4H inh	MT1-MMP act inh	MT1-MMP act inh RFP	CSC inhib	Rce1 inh	PABP polyA inh	Yeast UUG start	HIV Env fusion	others
COc1ccc(-c2cn3c(C)c(C(=O)N4CCN(c5ccc(F)cc5)CC4)sc3n2)cc1	10	3	1	-5	i	-1	-16	-32
O=C(CN1CCOCC1)Nc1scc(-c2ccccc2)c1C(=O)N1CCOCC1	3	2	2	-11	i	4	-1	12
COc1ccc(-c2nn(-c3ccccc3)cc2/C=N/NC(=O)c2cccc(S(=O)(=O)Nc3ccccc3Cl)c2)cc1	5	-4	-7	32	i	-1	·	-8
CCCNC(=O)OC[C@H]1O[C@H](CCO/N=C/[C@@H](NS(=O)(=O)c2ccc(C)cc2)[C@H](C)/C=C/CC(=O)OC)C=C[C@@H]1Oc1ccc(OC)cc1	0	·	·	·	i	7	·	·
Nc1nnc(CC(=O)N/N=C/c2ccc(-c3ccccc3)o2)s1	82	2	0	-6	i	2.9*	·	-1	eIF4H inh retest=39;PABP polyA inh retest=68*
Cc1ccc(-c2ccnc3nc(Sc4ncc(C(F)(F)F)cc4Cl)nn23)cc1	2	-1	-4	0	i	5	-12	1
O=C(COC(=O)c1nn(-c2ccccc2C(F)(F)F)cc1O)c1ccc(OC(F)F)cc1	·	0	2	-17	i	·	-3	-14
O=C(Nc1ccc(Cl)cc1)N1CCN(Cc2ccc3c(c2)OCO3)CC1	-3	3	-8	4	i	0	-21	19
O=C(COC(=O)CN1C(=O)C(=O)c2ccccc21)OCN1C(=O)c2ccccc2C1=O	-2	0	8	-14	i	3	0	·
Cc1ccc(C2=NOC3(CC(=O)N(c4ccccc4)C3=O)C2)cc1 (stereo unspecified)	19	2	5	7	i	-8	-15	2
O=C(OCC(=O)N1CCN(C(=O)c2ccco2)CC1)c1cccc(S(=O)(=O)N2CCc3ccccc32)c1	1	0	-4	9	i	-7	-16	-44
CCOc1ccccc1NS(=O)(=O)c1ccc(Br)s1	0	3	2	7	i	-10	1	·
CC(C)(C)Cc1c(-c2ccc(F)cc2)nc2ccc(Br)cn12	·	-7	-6	·	·	·	18	-53
CCCn1c(=O)[nH]c(=O)c2c1nc(-c1cc([N+](=O)[O-])ccc1Cl)n2CCOC	1	3	5	0	i	4	-16	2
CCOC(=O)c1ccc(S(=O)(=O)N2CCN(C3CC(=O)N(c4ccccc4C(F)(F)F)C3=O)CC2)cc1 (stereo unspecified)	·	0	0	·	·	·	-10	-21
O=C(NCCCn1ccnc1)c1ccccc1NS(=O)(=O)c1ccc(F)c(F)c1	-4	22	3	-2	i	-4	-7	9
O=C(Nn1cnc2ccccc2c1=O)c1ccc([N+](=O)[O-])cc1Cl	5	-3	0	0	i	-2	·	-1
COc1ccc(NC(=O)CN2C(=O)NC(C)(c3ccc4c(c3)OCO4)C2=O)cc1S(N)(=O)=O (stereo unspecified)	·	0	5	-18	·	·	-13	-288
C=CCNC(=O)C1CC2Cn3c(nc4cc5ccccc5cc43)C2N1C (stereo unspecified)	5	3	7	-12	i	-5	-8	-6
Cc1nn(CC(=O)NNC(=O)c2ccccc2F)c([N+](=O)[O-])c1Br	8	8	0	-15	i	1	-1	10
CCCCCC(=O)Nc1cccc(C2=NOC3(C2)C[C@H](C(N)=O)N(C(=O)COc2ccc(Cl)cc2)C3)c1 (stereo partly specified)	2	2	-11	·	i	12	-6	10
Cc1ccc(C)c(NC(=S)NCCc2ccc(F)cc2)c1	-1	-2	-4	-1	i	11	-27	7
COCCOc1cc(NC(=O)CS(=O)(=O)CC(=O)N(C)C)c(Cl)cc1Cl	-4	1	4	6	·	1	·	-2
Cc1ccc(S(=O)(=O)N2CCOc3ccccc32)c(C)c1NS(C)(=O)=O	-6	0	-5	-9	i	8	4	23
Cc1ccc(OCCN2CCN(c3ncnc4sc(C)c(C)c34)CC2)cc1	-4	7	-17	41	i	-3	-3	85*

(further entries)
SMILES	eIF4H inh	MT1-MMP act inh	MT1-MMP act inh RFP	CSC inhib	Rce1 inh	PABP polyA inh	Yeast UUG start	HIV Env fusion	others
O=C(NC1CCCCC1)c1ccc(-n2cnnn2)cc1	1	0	3	-12	i	0	·	-6
CS(=O)(=O)c1ccccc1C(=O)Nc1cccc2ncccc12	58	-2	3	-2	·	27	·	9	eIF4H inh retest=24;PABP polyA inh retest=27
CN(CC(=O)N1CCN(c2ncccn2)CC1)S(=O)(=O)c1ccc(Cl)cc1	7	0	1	6	i	36	·	12
C/C(=N\NC(=O)c1nnn(-c2nonc2N)c1CN(C)C)c1ccco1	-9	-5	3	1	i	12	-12	1
CCOC(=O)CSCC(=O)Nc1c(C(=O)C2CC2)oc2ccccc12	-11	0	4	-10	i	-4	-12	21
Nc1cc(C(=O)OCC(=O)N2CCOCC2)ccc1Cl	-6	0	3	-6	i	18	-18	-3
Cc1oc2cc3oc(=O)c(CC(=O)N[C@H](C(=O)N[C@@H](C(=O)O)c4ccccc4)C(C)C)c(C)c3cc2c1C	6	2	4	-3	i	17	-5	·
Cc1nc(NCc2ccco2)[nH]c(=O)c1CCC(C)C	-4	-1	-2	·	i	3	1	-3
Cc1ccc(S(=O)(=O)NC(=O)C2(C)CCN2C(=O)c2ccccc2CCc2ccccc2)nc1 (stereo unspecified)	·	3	1	·	·	·	-9	16
Cc1ccc(C)c2c1CCCC2=O	·	-3	2	·	·	·	-22	10
CCOC(=O)c1c(C)[nH]c(C(=O)OCC(=O)Nc2cc(C)ccc2OC)c1C	-6	4	4	·	i	-11	-13	-3
COc1ccc(-c2csc3nc(-c4ccccc4F)oc(=O)c23)cc1OC	-7	2	-1	99*	i	-3	-11	-6
CCOC(=O)c1nc(C)n(-c2cc(OC)c(Cl)cc2Cl)n1	6	1	1	-4	i	-2	·	10
COc1ccc(Cl)cc1NC(=O)CSc1nnc(C2CC2)n1N	·	-2	-5	·	·	·	-28	32
O=C1CSCC(=O)N1Cc1ccc(Cl)c(Cl)c1	3	-3	0	1	i	7	-16	24
O=C(CN1CCN(c2cccc(Cl)c2)CC1)c1ccc(O)cc1O	-8	6	-2	-15	i	2	-17	12
O=C(COC(=O)C12CC3CC(CC(O)(C3)C1)C2)NCCc1ccc(Cl)cc1	-1	-7	-4	·	i	-18	·	13
CCCCNC(=O)c1cn(C)c2ccc(S(=O)(=O)N3CC(C)CC(C)C3)cc2c1=O (stereo unspecified)	0	·	·	26	i	6	-9	·
O=C(O)Cn1cc(C(=S)N2CCOCC2)c2ccccc21	-12	4	2	2	i	98	-8	-98	eIF4H inh retest=-10;PABP polyA inh retest=8
Cn1cnnc1SCC(=O)N1N=C(c2ccc(Cl)cc2)CC1c1ccco1 (stereo unspecified)	-6	1	4	-8	i	2	·	9
Cc1c(C(=O)NCCSc2ccc(Cl)cc2)cccc1[N+](=O)[O-]	-11	5	3	-3	i	-10	-3	·
Cc1ccc(N(C(=O)Cn2nnc(-c3ccccc3F)n2)C(C(=O)NC2CCCC2)c2ccncc2)cc1 (stereo unspecified)	15	0	1	-5	i	15	-4	0
S=C(NCc1cccs1)Nc1cccc2ccccc12	3	1	0	-1	i	-18	-35	10
CC1(C)CC(N2CCCC2)=CC(=[N+]2CCCCC2)C1	5	-7	-24	-19	i	-5	-8	46
C#CCOCCOCCOCCNc1nc(N2CCN(C(=O)[C@H](CCC(=O)O)n3cc(C(N)Cc4ccc(O)cc4)nn3)CC2)nc(N2CCN(C(=O)[C@H](CCC(=O)O)n3cc(C(N)[C@H](C)CC)nn3)CC2)n1 (stereo partly specified)	2	2	4	-4	i	16	112*	·

A stretch taken from the entries so far, as a working copy:
SMILES	eIF4H inh	MT1-MMP act inh	MT1-MMP act inh RFP	CSC inhib	Rce1 inh	PABP polyA inh	Yeast UUG start	HIV Env fusion	others
O=C(NC1CCCCC1)c1ccc(-n2cnnn2)cc1	1	0	3	-12	i	0	·	-6
CS(=O)(=O)c1ccccc1C(=O)Nc1cccc2ncccc12	58	-2	3	-2	·	27	·	9	eIF4H inh retest=24;PABP polyA inh retest=27

Next part:
SMILES	eIF4H inh	MT1-MMP act inh	MT1-MMP act inh RFP	CSC inhib	Rce1 inh	PABP polyA inh	Yeast UUG start	HIV Env fusion	others
Cc1cc(C)c(NC(=S)N2CCN(c3ccc([N+](=O)[O-])cn3)CC2)cc1C	-8	0	-8	5	i	0	-26	19
COc1ccccc1C(=O)N(Cc1sccc1C)C1CCS(=O)(=O)C1 (stereo unspecified)	3	-7	3	-8	i	2	-25	-1
COc1ccccc1-c1coc2c(CN3C(C)CCCC3C)c(O)ccc2c1=O (stereo unspecified)	14	2	4	-7	i	0	-1	-16
O=C(CCNS(=O)(=O)c1ccccc1C(F)(F)F)NC1CCCCCC1	·	-1	0	·	·	·	8	-30
CC(Sc1nnc(C2CC2)n1C1CC1)C(=O)NC1(C#N)CCCCC1 (stereo unspecified)	·	12	0	·	·	·	5	-2
O=C(CN1CCOCC1)Nc1nc2cc([N+](=O)[O-])ccc2s1	-7	-8	0	-7	i	-4	·	-6
Cc1nc2cc(Nc3ccncc3)ccc2s1	4	-4	1	-16	i	1	2	16
O=C(CCN1C(=O)c2cccc3cccc(c23)C1=O)NC1CCS(=O)(=O)C1 (stereo unspecified)	12	-4	0	-10	i	18	·	-25
COC(=O)/C=C1/S/C(=N/NC(=O)c2ccc(Cl)cc2Cl)NC1=O	5	-1	4	25	i	4	-13	-8
NC(=O)c1ccsc1NC(=O)COC(=O)COc1ccc(C=O)cc1	·	-3	0	-5	·	·	-6	10
Cc1ccc(-n2cnc3ncnc(-c4ccccc4)c32)cc1	1	-1	1	10	i	-12	-14	18
Cc1cccc(NC(=S)NCC(c2cccnc2)N2CCOCC2)c1C (stereo unspecified)	-3	1	4	-12	i	11	·	2
OC(c1cc(Cl)cc(Cl)c1)c1ncc(-c2ccccc2F)[nH]1 (stereo unspecified)	·	5	-2	·	·	·	-10	-7
O=C(/C=C/c1ccccc1Cl)Nc1cccnc1	-12	-1	0	1	i	-7	-10	-76
COc1ccc(CCNC(=O)c2c(C)cc(=O)oc2C)cc1OC	1	3	0	1	i	5	-20	·
Cc1ccc(N2C(=O)C(NC(=O)c3ccccc3)(C(F)(F)F)C3=C2CC(C)(C)CC3=O)cc1 (stereo unspecified)	-9	6	2	·	i	-12	·	·
CCN(CC)CC(=O)Nc1cccc(S(=O)(=O)N2CCCC2)c1	0	1	3	-4	i	0	-12	-10
O=C(Cn1cc2c(n1)CCCC2)NCCCN1CCN(Cc2ccccc2)CC1	-2	-1	3	10	i	0	-23	18
COc1cc(OC)cc(-c2c(-c3ccc(F)cc3)c3cc(-c4ccc(SC)cc4)ccc3n2C)c1	·	-4	3	·	·	·	-13	0
CCOC(=O)CCc1n[nH]c(=O)[nH]c1=O	-1	4	7	-15	i	3	-16	·
COC(=O)C1=CN(CCOC23CC4CC(CC(C4)C2)C3)C=C(C(=O)OC)C1c1ccsc1	10	-29	-30	36	i	?	·	7
CS(=O)(=O)n1nc(NCc2cccs2)nc1NCc1cccs1	-4	-6	2	-11	i	-23	·	10
CC(=O)COc1ccc2c(C)c(C)c(=O)oc2c1	-6	2	5	-11	i	7	-7	·
CC(C)Cn1c(N)c(C(=O)COC(=O)C2Cc3ccccc3CN2S(C)(=O)=O)c(=O)n(C)c1=O (stereo unspecified)	·	-2	-14	47	·	·	-8	·
CC1(C)C(c2ccccc2)=[N+]([O-])CN1O	-7	-5	0	-4	i	-1	-11	-70
CC(C)Cc1nc(SCC(=O)N2CCCC2)c2c(=O)n(C)c(=O)n(C)c2n1	-8	2	2	1	i	-7	5	-1
